# SARS PLP yeast: qHTS of Yeast-based Assay for SARS-CoV PLP. AID 485353, 2010. actives 0.19% (n = 330,000). Potency, µM (titrated, usually from 32.9 µM), for the others: at the top dose activity, positive = growth rescue. S. cerevisiae expressing SARS-CoV PLpro, growth rescue; control for the full effect not named in the record; active means well fitted rising curve with a large enough effect; inconclusive means small, poorly fitted or top-dose-only effect; inactive means no such curve, though single readings can be large or run the other way; also: 0% is about no effect; nearly all actives have a fitted effect of over 55% in size; growth read by luminescence after 48 h
# Cruzain inh Det: qHTS Assay for Promiscuous and Specific Inhibitors of Cruzain (with detergent) | Cruzipain (Trypanosoma cruzi), P25779 | purified cruzain, Z-FR-AMC fluorescence, 0.01% Triton | Potency, µM, without a hit: max response, negative = inhibition, usual class: inhibitors | actives 0.43% (n = 200,000) | AID 1478, 2009;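 also: plate controls were neutral wells for no effect and buffer without enzyme for full effect; nearly all actives have a fitted effect of over 40% in size; top concentration of the series not given in the record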
# Target sequence (P25779 123-467 limits assumed): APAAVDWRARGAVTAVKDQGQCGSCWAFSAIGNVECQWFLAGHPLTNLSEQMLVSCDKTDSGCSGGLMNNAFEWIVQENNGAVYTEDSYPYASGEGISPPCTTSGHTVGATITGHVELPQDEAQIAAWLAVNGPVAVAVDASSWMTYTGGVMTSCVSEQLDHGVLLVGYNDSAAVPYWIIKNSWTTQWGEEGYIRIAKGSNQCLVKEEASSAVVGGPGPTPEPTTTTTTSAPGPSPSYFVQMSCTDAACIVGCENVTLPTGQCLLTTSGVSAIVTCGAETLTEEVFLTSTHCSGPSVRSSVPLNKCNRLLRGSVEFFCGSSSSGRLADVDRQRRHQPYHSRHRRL
#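 Cysteine protease activity tested under reducing, mildly acidic conditions (100 mM sodium acetate pH 5.5, 5 mM DTT) plus 0.01% Triton X-100. Cruzain 1.5 nM; substrate Z-FR-AMC 2 uM; 15 min compound preincubation at room temperature.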
# Lassa entry inh: qHTS for Inhibitors of binding or entry into cells for Lassa Virus | Lassa virus pseudotype entry inhibition, cell reporter; control for the full effect not named in the record | Potency, µM (titrated, usually from 37.9 µM), without a hit: at the highest dose activity change, negative = inhibition, actives largely listed as inhibitors | actives 1.2% (n = 300,000) | AID 540256, 2011; active means well fitted inhibition curve with a large enough effect; inconclusive means small, poorly fitted or top-dose-only effect, or effect the other way; inactive means flat fitted curve, though single readings scatter; tested in HEK293 cells; also: % is scaled to controls: 0 for no effect and ±100 for the full control effect; nearly all actives have a fitted effect of over 50% in size; luciferase read-out
# NS1 inh: qHTS Assay for Inhibitors of Influenza NS1 Protein Function | S. cerevisiae slowed by influenza A NS1, growth recovery by OD600 | Potency, µM (doses to about 46.1 µM), for inactives: at the highest dose activity, positive = more growth | actives 0.4% (n = 270,000) | AID 2326, 2010; active means well fitted rising curve with a large enough effect; inconclusive means small, poorly fitted or top-dose-only effect; inactive means no such curve, though single readings can be large or run the other way; also: nearly all actives have a fitted effect of over 50% in size
#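 In this qHTS, NS1 from influenza A is expressed in budding yeast, where it slows growth. Cells are switched from glucose to 2% galactose medium (pH 6.0, -URA), treated with compound, and growth recovery is read at OD600.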
# RE007 growth inh: qHTS Assay for Inhibitors of the HIV-1 protein Vpr | S. pombe RE007 Vpr strain, BacTiter-Glo ATP luminescence, 24 h; control for the full effect not named in the record | Potency, µM (highest dose often 92.2 µM), inactives show at the highest dose activity change, negative = less growth | actives 0.21% (n = 360,000); active = well fitted falling curve with a large enough effect; inconclusive = small, poorly fitted or top-dose-only effect; inactive = no such curve, though single readings can be large or run the other way;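 also: % is scaled to controls: 0 for no effect and ±100 for the full control effect; nearly all actives have a fitted effect of over 50% in size; the assay follows cell death caused by Vpr and the record does not say whether a fall means rescue or toxicity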
#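 Fission yeast strain RE007, carrying one chromosomally integrated HIV-1 vpr copy, was seeded at OD 0.01 in PMG+AL medium with 23 nL pinned compound. After 24 h at 30 °C and 99% humidity, viability was read by BacTiter-Glo luminescence.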
# Marburg entry inh: qHTS for inhibitors of binding or entry into cells for Marburg Virus; Marburg virus pseudotyped entry inhibition, cell reporter; control for the full effect not named in the record; about a third of the inactives were read at about 46 µM; Potency, µM (top dose mostly 37.8 µM), without a hit: at the highest dose activity change, negative = inhibition, usual class: inhibitors; actives 1.8% (n = 300,000); active = well fitted inhibition curve with a large enough effect; inconclusive = small, poorly fitted or top-dose-only effect, or effect the other way; inactive = flat fitted curve, though single readings scatter; tested in HEK293 cells; about a fifth of its hits are not listed in these tables; also: % is scaled to controls: 0 for no effect and ±100 for the full control effect; luciferase read-out
# Cruzain noTriton: qHTS Assay for Promiscuous and Specific Inhibitors of Cruzain (without detergent). Potency, µM, inactives show max response, negative = inhibition, usual class: inhibitors. actives 2.3% (n = 200,000). AID 1476, 2009. purified cruzain, Z-FR-AMC fluorescence, no detergent. Cruzipain (Trypanosoma cruzi), P25779;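 also: plate controls were enzyme without inhibitor for no effect and buffer without enzyme for full effect; nearly all actives have a fitted effect of over 40% in size; top concentration of the series not given in the record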
#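 Detergent-free condition (0.00005% Triton X-100) in acetate buffer pH 5.5 with DTT. 1.5 nM enzyme and compound were pre-mixed 15 min, then 2 uM Z-FR-AMC substrate added; reaction progress from fluorescence change between first and third reads (60 s).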
# 2A StopGo: High Throughput Screening for Foot and Mouth Disease Virus Antivirals; Potency, µM (top dose mostly 57.9 µM), without a hit: at the top dose signal change, negative = less light; human cells with a luciferase reporter of 2A StopGo recoding; control for the full effect not named in the record; actives 1.2% (n = 410,000); active = well fitted falling curve with a large enough effect; inconclusive = small, poorly fitted or top-dose-only effect; inactive = no such curve, though single readings can be large or run the other way; tested in HEK293T cells; also: % is scaled to controls: 0 for no effect and ±100 for the full control effect; nearly all actives have a fitted effect of over 45% in size; luciferase light after 4 h
# * marks the source's active call; other numbers are inactive results; u = inconclusive; x = not tested or not shown; & = joins results of further samples; [ ] = another dose, or the depositor's remark. Unless noted, calls follow the shape of the dose curve; as a rule, active = well fitted curve in the direction sought with a large enough effect; inconclusive = small, poorly fitted or top-dose-only effect, or another doubt; inactive = no such curve, though single readings can be large; an effect the other way counts as inactive or inconclusive. Potency is read from the fitted curve at half-maximal effect. No enrichment for hits; overall some 4.7% were active at least once.
SMILES,SARS PLP yeast,Cruzain inh Det,Lassa entry inh,NS1 inh,RE007 growth inh,Marburg entry inh,Cruzain noTriton,2A StopGo
COc1ccc(Cl)cc1NC(=O)CCCn1c(=O)c2cccn2c2cccnc21,x,-1.5%,-16%[46.1 µM],x,-3%,x,-5%,-17%&-2%
CCc1ccc(NS(=O)(=O)c2ccc(C(=O)N(C)C)s2)cc1,x,-1.6%,-27%[46.1 µM],x,x,x,16%,-17%
CCOC(=O)COC(=O)c1ccc(Oc2cc(C)nc(SC)n2)cc1,-12%,-4.8%,2%,0%,-8%,22%,9%,11%
COc1ccc(N(C=O)C(=S)SC)cc1,-1%,x,x,0%,-12%,x,x,-2%
OC1(c2ccc(Cl)cc2)CCN(Cc2cn[nH]c2-c2ccc(F)cc2)CC1,0%,x,1%[46.1 µM],-2%,16%,u,x,-18%
CN1CCN(c2ccc(NC(=O)c3ccc([N+](=O)[O-])o3)cc2Cl)CC1,-1%,x,u,-5%,-1%,11µM*,x,0%
CCC1CCCCN1c1nc2c(C=O)c(C)nn2c2ccccc12 (stereo unspecified),-16%,-13%,u,-4%,59%,u,1%,-23%
Nc1[nH]n(-c2ccccc2)c(=O)c1N=Nc1ccc2ncsc2c1,-2%,x,x,-6%,-13%,x,x,-14%
O=C(Nc1sc2c(c1-c1nc3ccccc3[nH]1)CCCC2)C1CCCC1,-2%,-5.3%,11%,12%,-16%,-11%,13µM*,-2%
CCOc1ccc(-n2c(=S)sc3c(=O)n(-c4ccccc4)c(SC)nc32)cc1,0%,x,x,4%,1%,x,x,-28%
Cc1cc(C)n2ncc(C(=O)Nc3ccc(Cl)c(Cl)c3)c2n1,1%,x,8%,4%,3%,15%&15%&15%[46.1 µM],x,23%
O=C(Nc1cc(C(F)(F)F)cc(C(F)(F)F)c1)c1cccn(Cc2ccccc2Cl)c1=O,x,0.1%,13%[46.1 µM],x,x,x,-5%,-8%
CCN(C(=O)CSc1nc(C)cc(=O)[nH]1)C1CCCCC1,-3%,x,8%,x,-10%,0%,x,-8%
Cc1ccc(S(=O)(=O)NCc2cn3c(C)csc3n2)cc1,-3%,3.3%,-1%,-7%,8%,4%,-26%,-4%
O=C(NO)c1ccc(C(=O)N(C2CCCCC2)C2CCCCC2)cc1,1%,2.5%,-11%,-99%,17%,u,2%,u
Cc1onc(-c2c(Cl)cccc2Cl)c1NC(=O)N(C)N,0%,x,x,2%,1%,x,x,-9%
O=C(COC(=O)c1ccncc1)NC(=O)C1CCCCC1,u,2.2%,10%,-2%,1%,-4%,1%,6%
Cc1ccc(NC(=O)n2ncc3c(C)cccc32)c(C)c1,1%,-1.4%,25%&6%[46.1 µM],-6%,12%,u,-7%,6%&0%
O=c1oc2ccc3ccccc3c2c2c1SC(C(F)(F)F)C2 (stereo unspecified),6%,-7.5%,5%,1%,-12%,3%,24%,8%
Cc1ccccc1NC(=O)CSc1nc2scc(C)c2c(=O)[nH]1,0%,x,1%[46.1 µM],0%,-15%,6%[46.1 µM],x,-1%
CCCn1c(SCC(=O)N2CCN(C(C)=O)CC2)nc2sc3c(c2c1=O)CCC3,4%,x,x,6%,11%,x,x,-22%
CCOc1ccc(OCc2ccc(C(=O)Nc3cccnc3)o2)cc1,1%,0.0%,u,-44%,10%,u,-5%,-18%
O=C(c1ccc2c(=O)n(C3CCCC3)c(=S)[nH]c2c1)N1CCCCCC1,0%,x,u,x,8%,-28%[46.1 µM],x,u
CN(C(=O)C1CCC(=O)N(C2CC2)C1)C1CCCCC1 (stereo unspecified),-4%,x,16%[46.1 µM],-1%,-11%,17%[46.1 µM],x,-2%
COc1ccc(OC)c(/C=N/NC(=O)CC(=O)NCc2ccccc2)c1,0%,x,x,1%,-15%,x,x,7%
CCOC(=O)C1(CC2CCCCO2)CCN(Cc2cc(F)ccc2-n2cccn2)CC1 (stereo unspecified),-1%,x,21%[46.1 µM],1%,3%,u,x,-10%
COc1cccc(-c2cc(N)nn2C(=O)Nc2ccc(Cl)cc2)c1,-12%,-3.2%,x,-72%,14%,x,-6%,0%
Cc1ccc2occ(CN3CC4CC(C3)c3cccc(=O)n3C4)c(=O)c2c1 (stereo unspecified),5%,-1.2%,u,-1%,-14%,1%,-7%,x
COc1ccc(CCNC(=O)CCn2c(=O)c3cccn3c3ccc(F)cc32)cc1OC,x,-1.9%,7%[46.1 µM],x,x,x,11%,-22%
CN1CCN(C2=C(Cl)C(=O)N(Cc3ccccc3)C2=O)CC1,-6%,-0.9%,-11%,-4%,4%,-11%,4%,-11%
COc1ccccc1OCCNC(=O)c1ccc(Br)cc1,-3%,x,-1%[46.1 µM],-39%,18%,u,x,22%
COc1ccc(/C=C/c2nc(S(=O)(=O)c3ccccc3)c(NCCCN(C)C)o2)cc1OC,-3%,x,x,2%,7%,x,x,0%
CCOc1ccccc1NC(=O)COc1coc(CN2CCCc3ccccc32)cc1=O,-2%,x,-16%,x,7%,u,x,u
O=C(Nc1cccs1)Nc1ccccc1Cl,-24%,-1.6%,-21%,-95%,u,-12%,-8%,-4%
O=C(Nc1nc(-c2ccc(F)c(F)c2)cs1)c1cnccn1,-1%,x,13%[46.1 µM],-1%,-1%,6%[46.1 µM],x,-10%
CN(C)c1nc(C(N)=O)nc(N2CCOCC2)n1,0%,-1.9%,4%,1%,-5%,-2%,-25%,8%
CC1CCCCN1C(=O)Cn1c(=O)oc2cc(S(=O)(=O)N3CCCC3)ccc21 (stereo unspecified),7%,x,x,20%,-1%,x,x,-25%
O=C(NCCN1CCOCC1)c1ccc(CS(=O)(=O)Cc2ccccc2F)o1,1%,3.2%,5%,13%,10%,0%&0%,1%,11%
Cc1cccc(NC(=O)C2CCN(S(=O)(=O)c3c(C)noc3/C=C/c3ccco3)CC2)c1C,x,-7.0%,29%[46.1 µM],x,x,-1%[46.1 µM],3%,-20%
CN(CCO)c1ccc(-c2n[nH]c(=O)c3ccccc23)cc1[N+](=O)[O-],0%,x,11%,3%,-2%,-22%[46.1 µM],x,-22%
CC(NC(=O)CSCc1ccccc1Br)c1ccccc1 (stereo unspecified),-10%,-5.4%,-7%,-10%,27%,3%,-11%,3%
O=C(OC1CCCCC1=O)c1cc(=O)c2ccccc2o1 (stereo unspecified),0%,0.0%,3%,0%,5%,29%,-11%,-8%
CN1CCN(c2ccccc2NC(=O)C(Cc2ccccc2)n2cccc2)CC1 (stereo unspecified),27%,-2.1%,x,-1%,10%,x,-6%,-28%
COc1ccc(N(CC(=O)Nc2ccc(S(=O)(=O)N3CCOCC3)cc2)S(=O)(=O)c2ccc(F)cc2)cc1,-1%,x,-28%,18%,-19%,u,x,10%
CCc1ccccc1NC(=O)c1ccc(CN2C(=O)CCn3nc(C)cc32)cc1,x,-2.6%,-17%[46.1 µM],x,x,x,4%,-25%
CC(=O)C1=C(O)CC(c2ccccc2)CC1=NCCc1c(C)[nH]c2ccc(C)cc12 (stereo unspecified),-15%,-12%,-1%,3%,-5%,33%,u,u
Cc1ccc(NC(C#N)c2ccccc2OCc2ccccc2)cc1 (stereo unspecified),-13%,-2.4%,-12%,-65%,0%,14%,-2%,24%
CCCN(CC(=O)Nc1cc(Cl)ccc1Cl)C(=O)/C=C/c1ccco1,18%,-3.0%,-2%,16%,-12%,u,1%,-13%
COCC1CCCN(Cc2cn[nH]c2-c2cc3ccccc3o2)C1 (stereo unspecified),2%,x,-12%,4%,-18%,-24%[46.1 µM],x,-16%
COc1ccc(C(=O)Nc2ccc(NC(=O)C(C)C)nc2)cc1,0%,x,-18%,3%,3%,-30%[46.1 µM],x,4%
Nc1nc(-c2ccc(Oc3ccccc3)cc2)c(CC(=O)O)s1,-9%,x,x,-7%,-8%,x,x,-1%
CCN(CC)S(=O)(=O)c1ccc(C(=O)NCC(=O)NC2CC2)cc1,-3%,x,10%,x,26%,17%[46.1 µM],x,-19%
CC1(c2ccccn2)Nc2ccccc2-c2nc3ccccc3n21 (stereo unspecified),-6%,-17%,19%,-68%,-8%,-21%,21%,24%
COc1ccc(C=C(c2nc3ccccc3s2)c2nc3ccccc3s2)cc1O,6%,-4.3%,u,16µM*,0%,u,u,-7%
COc1ccccc1-c1noc2ncnc(Nc3ccc4c(c3)OCO4)c12,10%,x,x,3%,-6%,x,x,-7%
C/C(=N/NC(=O)c1ccc(C)s1)c1ccncc1,11%,x,x,-3%,13%,x,x,40%[activator]
CS/C(=N\S(=O)(=O)c1ccccc1)c1ccccc1,13%,-1.8%,0%,2%,18%,11%,-14%,-25%
CC1CCc2c(sc3nnn(CC(=O)Nc4ccc(Cl)cc4)c(=O)c23)C1 (stereo unspecified),x,-1.0%,2%[46.1 µM],x,x,x,3%,-6%
O=C1NC2C(=CC(O)C(O)C2O)c2cc3c(c(O)c21)OCO3 (stereo unspecified),x,x,u,x,-29%,x,x,-10%
COc1ccc2nc(N(Cc3cccnc3)C(=O)Cc3ccccc3)sc2c1,x,-0.6%,u,x,x,x,12%,0%
# (further entries)
SMILES,SARS PLP yeast,Cruzain inh Det,Lassa entry inh,NS1 inh,RE007 growth inh,Marburg entry inh,Cruzain noTriton,2A StopGo
Cc1ccc2oc(=O)c(/C=C(\O)c3cccs3)nc2c1,0%,x,12%,-1%,-24%,0%[46.1 µM],x,-2%
CC(=O)N(C)/C=C1\Sc2ccccc2C1=O,-10%,2.1%,1%,-143%,u,0%,-6%,3%
COC(=O)c1ccc(Cn2cc(C(F)(F)F)cc([N+](=O)[O-])c2=O)cc1,-1%,x,3%[46.1 µM],-2%,30%,21%[46.1 µM],x,-10%
COc1ccc(-n2c(Cc3cccn3C)nnc2SCC(=O)NCC2CCCO2)cc1 (stereo unspecified),5%,0.9%,x,5%,-2%,1%,u,-2%

# Screens from PubChem.
